# HCMV UL50-53 inh = inhibitors of HCMV UL50-UL53 nuclear egress complex interaction; inhibition, % (test concentration not listed); AID 1918969; actives 0.15% (n = 190,000); HTRF UL50-UL53 interaction, normalized percent inhibition;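 active = both replicates at 50% or more, plus weaker picks with an unusually low signal ratio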;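 also: stock transfer was 100 nL into about 20 µL; 0% = negative control wells and 100% = wells with untagged competitor protein; inactives centre near -12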
# Sa growth inh = blocks Staphylococcus aureus growth; S. aureus RN4220 growth, OD600, 20 h, 42 °C; hits give low values; relative growth, % (concentration not given with the values); actives 0.53% (n = 170,000); AID 720641;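 active = growth at 42 °C up to 50% and 20 or more points under that at 30 °C, or under 10% at both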;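 also: 300 nL library stock went into each well; scaled to the means of positive and negative controls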
# GIV-Gai inh = GIV-Galpha-i interaction inhibition | P08753 | Galpha-i3/FITC-GIV peptide fluorescence polarization, 90 min; hits give low values; scaled: aluminum fluoride 0%, vehicle 100% | percent of control (FP), % (no concentration beside the values) | actives 0.42% (n = 210,000) | AID 1224905;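 active = replicate mean at 85% of control or lower, very high polarization wells dropped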;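 also: wells of about 15 µL received 100 nL stock; the first replicate is given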
# Target sequence (P08753 whole entry, looked up): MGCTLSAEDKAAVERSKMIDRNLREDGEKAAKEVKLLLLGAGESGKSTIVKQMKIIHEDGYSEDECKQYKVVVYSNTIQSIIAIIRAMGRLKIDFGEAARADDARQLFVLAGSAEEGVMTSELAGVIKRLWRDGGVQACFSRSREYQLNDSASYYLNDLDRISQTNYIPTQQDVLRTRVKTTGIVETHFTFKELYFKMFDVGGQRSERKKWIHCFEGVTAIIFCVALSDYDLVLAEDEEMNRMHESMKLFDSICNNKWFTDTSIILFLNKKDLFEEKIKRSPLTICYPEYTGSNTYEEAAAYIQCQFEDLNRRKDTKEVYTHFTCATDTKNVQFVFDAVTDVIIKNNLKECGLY
# Sa growth inh second temp = also measured in Sa growth inh; calls as there; relative growth, %; measured here: growth at 30 °C;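 optical density after 20 h as mean of two plates; 100% = untreated growth and lower means inhibition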
# The depositor's hits bear a star; / = no result given; & = joins results of further samples.
SMILES,HCMV UL50-53 inh,Sa growth inh,Sa growth inh second temp,GIV-Gai inh
COc1ccc2c(c1)-c1ccccc1S(=O)(=O)N2C(C)=O,-14,98,96,/
CCCN(CCC)CCCNC(=O)Cn1ncn2c(cc3sc(CC)cc32)c1=O,-45,108,85,100
CCNc1ccc(S(=O)(=O)C(F)(F)F)cc1NCC(=O)N1CCCc2ccccc21,-34,91,73,/
O=C(NCc1ccc(-c2nc3ccccc3o2)cc1)c1ccccc1Br,-4,110,74,103
Cc1cc(C)cc(NC(=O)c2c(C)noc2C)c1,-17,95,88,/
CCC(C)NC(=O)c1nnc(-c2oc3ccc(C)cc3c2C)o1 (stereo unspecified),-15,/,/,105
Nc1ccc(-c2cn3c(n2)SCC3)cc1,-6,88,76,102
Cc1ccc(-n2nnc3c(SCC(=O)N4CCCC4)ncnc32)cc1,/,115,94,105
Cc1ccc(OCC(=O)Nc2sc3c(c2C#N)CC(C)(C)NC3(C)C)cc1,-9,101,80,/
Nc1c(C(=O)Nc2ccccc2)nnn1Cc1ccccc1,-15,101,83,96
O=C(Cn1c(=O)oc2cc(S(=O)(=O)N3CCCCCC3)ccc21)Nc1cccc(C(F)(F)F)c1,/,117,97,98
COc1ccc(-c2cc(=O)oc3cc4occ(-c5cccc(OC)c5)c4cc23)cc1,/,93,92,99
Cc1ccc2nc(-c3ccccn3)oc2c1,1,106,93,114
Cc1ccc(CCNC(=O)CCn2nc(-c3ccccc3)ccc2=O)cc1,/,108,89,99
N#Cc1c(NC(=O)COC(=O)c2cccs2)sc2c1CCCCC2,-12,72,94,/
Cc1nc2scc(C)n2c(=O)c1S(=O)(=O)N1CCC(C)CC1,-6,104,90,104
CCCCC(CC)CN=C1NS(=O)(=O)c2ccccc21 (stereo unspecified),0,92,92,/
CCOc1ccccc1NC(=O)NCc1noc2ccc(C)cc12,/,90,73,110
COc1ccc(Cl)cc1NC(=O)CSc1nccn1-c1ccc(Cl)cc1,/,115,83,103
C1CCCN(c2nc3nonc3nc2N2CCCCCC2)CC1,-25,95,70,103
CCN(CC)C(=S)Nc1ccc(OC)cc1,-18,112,96,103
CC(C)c1ccc(NC(=O)N2CCC(N)CC2)cc1,-11,84,82,94
CC(=O)NCCn1c(SCC(=O)Nc2ccc(C)cc2)nc2ccccc2c1=O,/,113,89,102
O=C(CSc1ccc(C(F)(F)F)cn1)c1cccc(C(F)(F)F)c1,-4,111,103,100
Cc1nn(C)c(C)c1NC(=O)/C=C/c1ccco1,/,100,89,99
O=C(Nc1nnc(-c2cc(Cl)ccc2Cl)o1)c1ccc2c(c1)OCCO2,/,85,85,103
O=C(CNC(=O)c1ccccc1)OCc1cc(=O)n2nc(C3CCCCC3)sc2n1,/,101,87,107
O=C(c1nsnc1-c1ccccc1O)N1CCCC1,/,107,85,100
Cc1ccc(NCn2c(=O)oc3ccccc32)cc1,/,116,88,103
CCc1cccc(NS(=O)(=O)c2ccc(-n3cccn3)cc2)c1,/,90,87,104
COc1ccccc1NC(=O)NCc1nc(N)n(C(=O)Nc2ccccc2OC)n1,/,108,85,105
O=C(CCn1c(=O)[nH]c2cc(S(=O)(=O)N3CCCCC3)ccc21)NC1CCCC1,-20,/,/,106
CN(C)S(=O)(=O)c1ccc(-c2nc(C#N)c(NCc3ccc4c(c3)OCO4)o2)cc1,18,/,/,108
O=C(CC(Sc1ccc(Br)cc1)C(=O)O)c1ccc(Cl)cc1 (stereo unspecified),-12,2.0*,0.1*,/
Cc1c(C)n(Cc2cccnc2)c2ncn3nc(-c4ccc(C(C)(C)C)cc4)nc3c12,-22,/,/,105
Cc1nc2ccccc2c(=O)n1NC(=O)c1cc(-c2ccccc2)nc2ccccc12,-26,/,/,105
Nc1nncn1C(=O)COc1ccc(Cl)cc1,-9,111,85,101
CN1C(=O)c2ccccc2Sc2ccc(NC(=O)NCc3cccc(Cl)c3)cc21,6,108,98,102
O=C(c1ccccc1)N1CCC(c2nc3ccccc3o2)CC1,6&-17,92,86,102&100
CCCOc1ccc(C(=O)Nc2cc3c(cc2SC2CCCCC2)n(C)c(=O)n3C)cc1,-24,/,/,94
Cc1ccc(-c2nc(S(=O)(=O)c3ccc(C)cc3)c(NCc3ccc4c(c3)OCO4)o2)cc1,2,/,/,102
CCOC(=O)C1CCCN(C(=O)Cc2c(C(=O)O)[nH]c3ccccc23)C1 (stereo unspecified),/,93,95,103
Cc1ccc(C2=NN(CC(=O)NC(C)c3ccccc3)C(=O)CC2)cc1 (stereo unspecified),/,96,88,103
CSC(=NC(C)(C)C)N/N=C/c1cc(Cl)cc(Cl)c1O,-27,100,71,106
Cc1ccc(NC(=O)Nc2ccc3c(c2)N(C)C(=O)CS3)cc1C,-25,/,/,102
Cc1cccc(NC(=O)CSc2nc3c(oc4ccccc43)c(=O)n2-c2ccccc2)c1C,-28,97,84,100
CC(=O)Nc1ccc(C(C)(C)C)cc1Br,2,99,97,107
Cc1cc(NC(=O)C(C)(C)Oc2ccc(Cl)cc2)cc(-c2nc3ncccc3o2)c1O,-6,99,94,109
CC(CN1CCCC1)OC(=O)c1ccc(F)cc1 (stereo unspecified),-11,82,73,101
O=C(CCCCl)N1CCCC1=O,4,88,86,101
CCOC(=O)C1=C(C)Nc2ccccc2[S@]1=O,-3,/,/,106
O=C(CN1C(=O)CSc2ccc(C(=O)N3CCCC3)cc21)Nc1nc2ccccc2s1,-26,/,/,110
Cc1cc(C)c(NC(=O)CNC2CC(C)(C)NC(C)(C)C2)c(C)c1,-31,109,89,102
CCNC(=O)Cn1c(-c2cccs2)cc2ccccc21,/,101,91,99
O=C1CC(c2ccccc2)Sc2nc3ccccc3n21 (stereo unspecified),-2,113,74,103
O=S1(=O)CCC(S(=O)(=O)N2CCCC2)C1 (stereo unspecified),7&-14,104,95,98&98
O=C(NCCc1ccc(Cl)cc1)c1ccc(-n2cnnn2)cc1,5,98,96,/
COC(=O)C1=C(C)NC(=O)CC1c1ccccc1C (stereo unspecified),-20,91,86,103
O=C(NCCc1nc2ccccc2n1Cc1ccccc1)c1ccco1,9,109,95,98
O=C(Nc1ccc(F)c(F)c1)C(c1ccccc1)N1Cc2ccccc2C1=O (stereo unspecified),/,107,99,109
# (next part)
SMILES,HCMV UL50-53 inh,Sa growth inh,Sa growth inh second temp,GIV-Gai inh
CC(=O)N(Cc1cccnc1)c1nc2c(C)cccc2s1,/,105,71,102
CCCCC(=O)Nc1nnc(S(=O)(=O)N(C)Cc2ccc(Cl)cc2)s1,/,90,89,106
COc1cc2c(cc1NC(=O)C(C)N1CCc3cc(OC)c(OC)cc3C1)oc1ccccc12 (stereo unspecified),-27,75,90,/
CC1(C)OC(=O)C(=Cc2ccoc2)C(=O)O1,20,111,88,113
CCCSc1sc(C(=O)OC)c(-c2cccs2)c1C#N,-12,108,86,101
O=C(CN1CCN(C2c3ccccc3-c3ccccc32)CC1)c1ccc2c(c1)OCO2,-21,100,88,105
C=CCC(CC=C)(NS(=O)(=O)c1ccc(C)cc1)c1ccccc1,-14,78,81,/
Cc1ccc2ncnc(NC3CCCCC3)c2c1,-24,78,78,116
COc1ccccc1NC(=O)CSC1=NC(c2ccccc2)CC(=O)N1 (stereo unspecified),6,94,89,110
COc1ccc(C(c2c(O)[nH]c(=O)[nH]c2=O)N(Cc2ccccc2)C(C)C)c(OC)c1OC (stereo unspecified),-3,87,88,98
Cc1[nH]c(C)c(S(=O)(=O)N2CCC(C(=O)N3CCCCC3)CC2)c1C(=O)N1CCCCC1,-11,/,/,114
CCN(CC)c1ccc(NC(=O)c2sc3ccccc3c2Cl)cc1,-64,102,91,111
COc1ccc(-c2nnc(SCc3ccc(F)cc3)n2-c2ccccc2)cc1,0,102,109,/
O=C(NCCCN1CCC(N2CCCCC2)CC1)C1=Cc2sc3c(c2CS1)CCCC3,-52,/,/,113
O=C(CSc1nnc(-c2ccco2)n1Cc1ccccc1)c1ccccc1,-16,86,80,/
O=C(C1CCN(S(=O)(=O)c2ccccc2F)CC1)N(CC1CCCO1)c1nc2ccccc2s1 (stereo unspecified),-35,93,88,/
CCOC(=O)c1c(-c2ccccc2)oc2ccc(NS(=O)(=O)c3ccc(C)cc3C)cc12,4,100,86,112
Cc1cccc(C(=O)Nc2ccccc2SCc2cc(=O)n3[nH]cnc3n2)c1,24,/,/,106
O=C1CC(c2ccc(F)cc2)c2c(n3c(nc4ccccc43)[nH]c2=O)N1 (stereo unspecified),12,102,94,98
O=C(Cn1nc(-c2ccc(Cl)cc2)c2ccccc2c1=O)N1CCCC1,-17,94,84,107
COCc1cc(=O)[nH]c(Nc2nc3ccccc3o2)n1,-22,95,94,103
Cn1cccc1Cc1nnc2n1CCCCC2,-25,104,94,/
Cc1ccc2c(c1)c1c(n2C)C(NC(N)=O)CCC1 (stereo unspecified),-17,93,89,101
C#CCOC(=O)Nc1ccc(OC)nc1,-25,95,92,109
O=c1c(-c2ccccc2)coc2c(CN3CCCCC3)c(O)ccc12,-6,87,98,/
CCOc1ccc(C(C)C)cc1S(=O)(=O)Nc1ccc(Cl)cn1,/,100,100,100
COc1ccccc1Oc1ccc(C(F)(F)F)cc1NC(=O)Cn1c2ccccc2c(=O)c2ccccc21,3,/,/,105
COc1nc2c([nH]1)C(c1ccc(OC(C)C)c(OC)c1)C(C#N)=C(N)O2 (stereo unspecified),-19,99,77,/
Cc1cc(C(F)(F)F)n[nH]1,-28,91,89,97
Cc1cccc(Nc2cc(C)nc(-n3nc(C)cc3C)n2)c1,/,-0.2*,-0.2*,98&110
COc1cccc(Nc2ccc3cc(S(=O)(=O)N4CCC(C)CC4)ccc3n2)c1,/,100,90,104
O=C(CCc1nc2cccnc2n1Cc1cccs1)NCc1ccccc1,/,97,75,129
Cc1ccc(S(=O)(=O)c2cnc3ccccc3c2N2CCC3(CC2)OCCO3)cc1C,-31,98,83,103
O=C(O)c1cccn1Cc1ccccc1Cl,4,109,101,100
CCOc1nc(NC)nc(N(C#N)CN2C(=O)c3ccccc3C2=O)n1,-35,120,96,107
Cc1noc2c1C(C(C)C)C1=C(CC(C)(C)CC1=O)N2 (stereo unspecified),-6,/,/,99
O=C(Nc1ccccc1C(=O)OCC(=O)N1CCOCC1)c1ccco1,-13,88,88,/
Cc1ccc(-n2nc(N3CCN(C(=O)CN4C(=O)C(C)Oc5ccccc54)CC3)ccc2=O)cc1C (stereo unspecified),-49,/,/,103
COCCN1C(=O)C(C)SC1c1ccc(Br)cc1 (stereo unspecified),-3,101,84,/
CCOc1ccc(CN(Cc2ccco2)C(c2ccc(C(F)(F)F)cc2)c2nnnn2CCOC)cc1 (stereo unspecified),-7,103,85,104

# As entered above:
# Reading of `Cc1ccc(-n2nc(N3CCN(C(=O)CN4C(=O)C(C)Oc5ccccc54)CC3)ccc2=O)cc1C` (stereo unspecified) under GIV-Gai inh: 103
# Reading of `COc1cccc(Nc2ccc3cc(S(=O)(=O)N4CCC(C)CC4)ccc3n2)c1` under Sa growth inh: 100

# (continued)
SMILES,HCMV UL50-53 inh,Sa growth inh,Sa growth inh second temp,GIV-Gai inh
CCc1ccc(NC(=O)Cn2ncc3c4ccccc4n(C)c3c2=O)cc1,-21,105,92,100
CCCc1n[nH]c(=S)n1N,13,93,93,106
C=C1SC(Nc2ccccc2OC)=NC12CCCCC2,13,108,105,106
Cc1ccc2cc(C3CC(c4cccs4)=NN3C(=O)CCC(=O)O)c(Cl)nc2c1 (stereo unspecified),-3,/,/,106
COc1ccc(-c2cn3cccnc3n2)cc1NC(=O)Nc1cc(C)ccc1C,-17,92,85,102
CC1(C(=O)NC2CCCCC2)Cc2ccccc2C(=O)N1Cc1cccnc1 (stereo unspecified),-5&-14,96,90,96&108
COc1ccc(CCNC(=O)c2cc(-c3ccc(C)c(C)c3)nc3ccccc23)cc1OC,/,125,85,110
CCOc1ccc(-c2n[nH]c3c2C(c2cccs2)N(c2ccc(Br)cc2)C3=O)cc1 (stereo unspecified),-20,110,85,103
Oc1ccc(Br)cc1C=Nc1ccc2[nH]ncc2c1,-38,79,94,101
C=CCc1cc2c(C)cc(=O)oc2c(C)c1O,-15,93,70,/
O=C(NCc1cccs1)c1ccc2ncsc2c1,-1,102,91,/
Cc1cc2cc(CNC(=O)C34CC5CC(CC(C5)C3)C4)ccc2n1C,/,95,93,100

# 4 compounds from above with just Sa growth inh.
Compound	Sa growth inh
CCc1ccc(NC(=O)Cn2ncc3c4ccccc4n(C)c3c2=O)cc1	105
CCOc1ccc(-c2n[nH]c3c2C(c2cccs2)N(c2ccc(Br)cc2)C3=O)cc1 (stereo unspecified)	110
CC1(C(=O)NC2CCCCC2)Cc2ccccc2C(=O)N1Cc1cccnc1 (stereo unspecified)	96
COc1ccc(CCNC(=O)c2cc(-c3ccc(C)c(C)c3)nc3ccccc23)cc1OC	125

# In another format: results already given
# Fields: HCMV UL50-53 inh	Sa growth inh	Sa growth inh second temp	GIV-Gai inh
- COc1ccc(CCNC(=O)c2cc(-c3ccc(C)c(C)c3)nc3ccccc23)cc1OC
    /	125	85	110
- CCOc1ccc(-c2n[nH]c3c2C(c2cccs2)N(c2ccc(Br)cc2)C3=O)cc1 (stereo unspecified)
    -20	110	85	103
- Oc1ccc(Br)cc1C=Nc1ccc2[nH]ncc2c1
    -38	79	94	101
- C=CCc1cc2c(C)cc(=O)oc2c(C)c1O
    -15	93	70	/
- O=C(NCc1cccs1)c1ccc2ncsc2c1
    -1	102	91	/

# Compound activity: PubChem BioAssay, ICCB-Longwood Screening Facility, Harvard Medical School
